# miR-21 FLuc: miR-21 reporter, rising signal; HeLa miR-21 FLuc reporter, luciferase, 48 h; Potency, µM (highest dose often 38.3 µM), for the others: at the top dose reporter change, positive = more light; 340,000 tested, under 10 active; AID 2288; active = well fitted rising curve with a large enough effect; inconclusive = small, poorly fitted or top-dose-only effect; inactive = no such curve, though single readings can be large or run the other way;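 further: % of control where 0% means no effect; miR-21 action dims this reporter so a rising signal means less miR-21 action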
#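 Using DMEM plus 10% FBS, HeLa miR-21-FLuc cells are incubated with test compounds (final up to about 40uM) for 48 hours; firefly luciferase signal is then imaged following reagent-mediated lysis.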
# Rango complex inh: Rango-importin beta binding inhibition. Q14974. Rango CFP/YFP FRET sensor + importin beta, 45 min. Potency, µM (titrated, usually from 92.2 µM), for inactives: top-dose inhibition of complex formation. hit rate 0.031% among 340,000. AID 540263; active = rising FRET ratio curve, often small or poorly fitted; inconclusive = mostly compound fluorescence or quenching in the first reads; inactive = flat curves in all reads;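 further: potency means the concentration at half of the fitted maximal effect; 0% = DMSO wells and 100% = buffer wells lacking importin beta; nearly all actives have a fitted effect of over 15% in size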
# Target sequence (Q14974 whole entry, looked up): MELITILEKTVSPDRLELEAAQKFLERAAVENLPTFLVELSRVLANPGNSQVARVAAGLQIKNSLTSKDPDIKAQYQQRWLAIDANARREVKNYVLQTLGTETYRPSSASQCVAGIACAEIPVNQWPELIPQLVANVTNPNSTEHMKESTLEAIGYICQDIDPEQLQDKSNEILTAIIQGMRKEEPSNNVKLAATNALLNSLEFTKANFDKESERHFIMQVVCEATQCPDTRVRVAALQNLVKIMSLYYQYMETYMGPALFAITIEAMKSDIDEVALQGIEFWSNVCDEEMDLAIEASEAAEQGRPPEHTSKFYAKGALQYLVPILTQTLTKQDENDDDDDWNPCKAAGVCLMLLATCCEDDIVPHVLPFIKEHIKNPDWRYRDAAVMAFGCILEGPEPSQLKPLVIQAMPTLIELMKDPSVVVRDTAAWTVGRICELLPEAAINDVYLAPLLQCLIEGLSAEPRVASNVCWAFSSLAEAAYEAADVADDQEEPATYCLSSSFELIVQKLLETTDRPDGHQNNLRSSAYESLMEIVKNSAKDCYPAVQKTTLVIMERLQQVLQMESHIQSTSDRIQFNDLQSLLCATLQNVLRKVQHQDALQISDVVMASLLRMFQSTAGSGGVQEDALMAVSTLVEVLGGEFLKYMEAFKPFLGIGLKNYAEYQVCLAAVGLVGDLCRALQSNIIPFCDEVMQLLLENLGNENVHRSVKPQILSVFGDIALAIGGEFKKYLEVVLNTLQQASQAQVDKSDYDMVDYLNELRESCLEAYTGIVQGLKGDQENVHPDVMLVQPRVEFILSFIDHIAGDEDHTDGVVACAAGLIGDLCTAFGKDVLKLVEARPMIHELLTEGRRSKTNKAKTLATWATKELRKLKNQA
#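 Inhibition scored from the CFP 486 nm/YFP 530 nm FRET ratio 45 min after adding 0.125 microM importin beta to 50 nM Rango biosensor preincubated 5 min with compound (room temperature, PBS with DTT, Tween-20, BSA). No-importin wells as positive control.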
# GLA inh pH 4.5: alpha-galactosidase A (human) inhibition, pH 4.5; activity change, negative = inhibition, % at 105 µM; 230,000 tested, under 10 active; purified enzyme, 4-MU-alpha-Gal fluorescence, pH 4.5; P06280; inconclusive = small, poorly fitted or top-dose-only inhibition, or a rising curve; inactive = flat fitted curve, though single readings scatter; no compound was filed as active;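 further: 0% = full activity with enzyme and -100% = basal without enzyme; dose as in the result columns while the protocol names 77 µM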
# Rango dissoc inh: inhibition of RanGTP-driven Rango-importin beta dissociation. O95149+P62826. Biochemical FRET Rango-importin beta, RanGTP-induced dissociation. Potency, µM (top dose mostly 46.1 µM), without a hit: at the top dose activity change, negative = inhibition. hit rate 0.071% among 340,000; active means falling FRET ratio curve, often poorly fitted, with flat reads before Ran was added; inconclusive means other falling curves, or compound fluorescence or quenching; inactive means flat or rising ratio curve;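 further: potency means the concentration at half of the fitted maximal effect; % of control where 0% means no effect; nearly all actives have a fitted effect of over 45% in size; -100% = wells without RanGTP and RCC1; the record marks most hits as doubtful in a second field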
#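 Compounds preincubate 5 min with complex of recombinant Rango and importin beta in PBS with 1 mM DTT. Ran (0.6 uM) loaded with 2 mM GTP plus 0.2 uM RCC1 starts dissociation; FRET is recorded 45 min later.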
# Active calls of the source: *; ? = inconclusive; . = not tested or not shown; & = joins results of further samples. The list is partial; the hit share may differ from the screen's.
Structure	miR-21 FLuc	Rango complex inh	GLA inh pH 4.5	Rango dissoc inh
COc1cc(/C=N/NS(=O)(=O)c2ccc(C)c([N+](=O)[O-])c2)ccc1O	-16%	0.6%	-4	13%
COc1ccc(Cl)cc1N1C(=O)CC(Sc2ccccc2N)C1=O (stereo unspecified)	-1%	2.0%	6	1%
CN(Cc1nc2ccccc2n1C)S(=O)(=O)c1ccc(F)cc1	-11%	9.8%	7	0%
COc1ccc(-c2nnn(CC(=O)N(CC(=O)NC3CCCC3)c3ccccc3F)n2)cc1OC	-4%	6.8%	.	7%
COc1ccc(Nc2nc(C)cc(=O)[nH]2)c(OC)c1	-3%	2.3%	4	19%
CN1C(=O)C2C3c4ccccc4C(c4ccccc43)[C@@H]2C1=O (stereo partly specified)	-2%	0.4%	.	-6%
CCOC(=O)Cn1nnc(-c2cc(OC)c(OC)c(OC)c2)n1	-2%	0.5%	8	43%
NNC(=O)CSc1cccc2cccnc12	-19%	1.0%	6	9%
CCCCN1CCNC[C@@H]1Cc1ccccc1	.	-3.8%	.	-4%
CCOC(=O)C1C(c2ccc(OC)c(OC)c2)c2c([nH][nH]c2=O)CC1(C)O (stereo unspecified)	19%	-2.9%	-2	-19%
Cc1ccc(CNC(=O)C2CCN(S(=O)(=O)N3CCC4(CC3)OCCO4)CC2)cc1	-7%	5.5%	-1	3%
COc1ccc(C(=O)/C=C2/Sc3cc4c(cc3N2C)OCO4)cc1	-22%	?	0	?
O=C(Cn1cnc2ccccc2c1=O)NCCC(=O)Nc1ccc2c(c1)OCO2	1%	0.3%	-15	-23%
O=C1CSC(c2ccccc2O)N1Cc1ccccc1 (stereo unspecified)	3%	4.7%	.	2%
Cc1sc(N2CCN(S(=O)(=O)c3ccc4c(c3)NC(=O)CO4)CC2)nc1-c1ccccc1	-2%	0.5%	.	-8%
CCCCN(CC)C(=O)Cn1ncc2c3ccccc3n(CCC)c2c1=O	0%&24%	-1.4%	.	12%
NS(=O)(=O)c1ccc(NC(=O)c2ccc3c(c2)CCN3S(=O)(=O)c2ccccc2)cc1	7%&12%	0.0%	.	-4%
COc1cc(S(=O)(=O)NC2CCCCC2C)ccc1Cl (stereo unspecified)	-6%	-1.1%	-8	32%
Cc1ccc(C(=O)NCC(=O)OCC(=O)c2c(N)n(C)c(=O)n(C)c2=O)cc1C	.	-0.6%	.	-7%
Cc1ncc(CO)c2c1Oc1nc(-c3ccccc3)nc(SCC(=O)N3CCOCC3)c1C2	0%	4.7%	.	2%
OCc1ccc(N=Nc2ccccc2)cc1	.	0.0%	.	-1%
COc1ccc(C(=O)Nc2ccc(O)cc2C(=O)O)cc1	7%	2.0%	-1	-6%
COc1ccccc1NS(=O)(=O)c1cn(C)cn1	0%	1.3%	.	-24%
COc1ccc(C(=O)NCc2cccnc2)cc1S(=O)(=O)N1CCCc2ccccc21	1%	-2.7%	-2	-7%
O=C(C1Cc2ccccc2CN1S(=O)(=O)c1ccc(F)cc1)N1CCCCCC1 (stereo unspecified)	0%	2.3%	-4	8%
COc1ccc2c(-c3ccccc3)cc3nnnn3c2c1	-20%	0.8%	3	7%
NC(=O)C(c1ccccn1)c1ncc(C(F)(F)F)cc1Cl (stereo unspecified)	-6%	-0.9%	-3	0%
COc1ccc(-c2noc(N3CCC(C(=O)Nc4ccc(F)cc4)CC3)n2)cc1	-7%	2.1%	.	-20%
Fc1ccc(/C=N/n2c(C3CCCCC3)n[nH]c2=S)cc1	-8%	-1.4%	.	17%
O=C(N1CCN(CCO)CC1)N1c2ccccc2C=Cc2ccccc21	-10%	-1.4%	-1	31%
COc1ccccc1C1C2=C(CCCC2=O)N(CC(=O)O)C2=C1C(=O)CCC2	1%	?	.	?
O=C(N/C=N/OCc1ccc(Cl)cc1Cl)NOCc1c(Cl)cccc1Cl	-10%	1.5%	3	0%
CCOC(=O)CSC1=C(C#N)C(c2ccccc2OCC)C(C#N)C(=O)N1 (stereo unspecified)	16%	-5.9%	-9	11%
COc1ccc(NC(=O)CCc2nc3ccccc3c(=O)[nH]2)cc1S(=O)(=O)N1CCCCC1	.	-1.9%	.	-6%
COc1ccc(CC(=O)OCC(=O)NC2CCCC(C)C2C)cc1 (stereo unspecified)	.	-1.1%	.	1%
O=C(O)CCCN1C(=O)/C(=C/C=C/c2ccco2)SC1=S	13%	6.4%	0	-8%
CCS(=O)(=O)N1CCC(C(=O)N2CCN(Cc3ccccc3)CC2)CC1	-1%	1.8%	3	3%
Cc1ccc(C)c(NC(=O)CN2C(=O)NC(CCc3ccccc3)C2=O)c1 (stereo unspecified)	.	-0.1%	.	22%
Oc1c(C=Nc2cccc3nsnc23)ccc2ccccc12	-2%	?	3	?
Cc1cccc(NC(=O)C(C)OC(=O)c2ccccc2NS(=O)(=O)c2cc(C)c(C)c([N+](=O)[O-])c2)c1 (stereo unspecified)	-1%	0.1%	-12	12%

# Three entries already listed, ordered by molar mass, smallest number first.
Structure	miR-21 FLuc	Rango complex inh	GLA inh pH 4.5	Rango dissoc inh
O=C1CSC(c2ccccc2O)N1Cc1ccccc1 (stereo unspecified)	3%	4.7%	.	2%
COc1ccc(Cl)cc1N1C(=O)CC(Sc2ccccc2N)C1=O (stereo unspecified)	-1%	2.0%	6	1%
COc1cc(/C=N/NS(=O)(=O)c2ccc(C)c([N+](=O)[O-])c2)ccc1O	-16%	0.6%	-4	13%

# Next part
Structure	miR-21 FLuc	Rango complex inh	GLA inh pH 4.5	Rango dissoc inh
O=C1C2C3CCC(O3)C2C(=O)N1c1cccc(O)c1 (stereo unspecified)	-5%	0.4%	.	9%
Cc1nn(C)cc1/C=C1\CCC/C(=C\c2cn(C)nc2C)C1=O	-1%	?	-18	?
Nc1nc(SCC(=O)Nc2ncc(Cl)cc2Cl)n[nH]1	.	-2.9%	.	-4%
COc1cc2c(cc1OC)C(=O)N1[C@H]3c4ccccc4OC[C@@H]3[C@H](c3ccccc3)[C@]1(C)C(=O)N2	.	?	.	-13%
Cc1ccnc(NS(=O)(=O)c2ccc(NC(=O)c3oc4ccccc4c3C)cc2)n1	-10%	-2.6%	.	-10%
CC1CCN(C(=O)c2ccc3c(c2)NC(=O)CN3)CC1	7%	?	.	?
COC(=O)C1=NN(C(=O)c2ccc(Br)cc2)C(O)(C(C)(C)C)C1 (stereo unspecified)	1%	-4.1%	-5	-4%
Cc1cc(=O)[nH]c2[nH][nH]c(=O)c12	.	1.2%	.	-5%
O=C(Nc1ccncc1)C1CCN(S(=O)(=O)c2ccc(Cl)c(C(F)(F)F)c2)CC1	.	7.2%	.	-12%
CC[C@]12C(=O)N(C)C[C@H]([C@@H]3C(=O)N(C)C(=O)[C@@H]31)N2C(=O)c1ccc(Br)cc1	.	0.2%	.	-11%
CCN(C(=S)Nc1ccc(C(C)=O)cc1)C1CCCCC1	-15%	-1.5%	-12	5%
CCOC(=O)CC(NC(=O)c1ccc(C)cc1)c1ccc(C)cc1 (stereo unspecified)	-14%	-1.3%	-4	0%
CSc1nc(N)nc2c1ncn2CC(=O)NCc1ccc2c(c1)OCO2	.	0.2%	.	23%
O=C(N/N=C/c1ccc(O)c(O)c1)c1ccc(CSc2cccc3cccnc23)cc1	-13%	-4.0%	-2	7%
CSc1nnc(Cn2c(=O)sc3ccccc32)n1-c1ccccc1	0%	0.8%	8	21%
CCCN1CCN(C(=O)c2nn(-c3ccc(OC)cc3)c(=O)c3c2c2ccccc2n3C)CC1	4%	3.8%	3	0%
CC(C)(C)C1CCC(OCC(O)CN2CCCC2)CC1 (stereo unspecified)	-11%	-3.4%	5	0%
CN(CC(=O)Nc1ccc(F)cc1)c1ccc(S(=O)(=O)N2CCCC2)cn1	0%	-4.4%	-3	3%
Cc1ccc(-n2nc(C(=O)NCc3ccco3)c3c4ccccc4n(C)c3c2=O)cc1	-4%	-3.6%	9	1%
CCCCNC(=O)CCn1c(=O)c2ccccc2n(Cc2cc(C)ccc2C)c1=O	0%&-8%	0.1%	1	-4%
Cc1ccc(C2C(C(=O)O)c3ccccc3C(=O)N2C)c(C)c1 (stereo unspecified)	-1%	-0.6%	-6	-4%
CC1=C(C(N)=O)C(c2ccccc2)n2nc(-c3cccc(C)c3)nc2N1 (stereo unspecified)	1%	-0.5%	5	7%
CCSc1nc(=O)n(-c2ccccc2)c(C)c1C(C)=S	-14%	1.1%	3	-5%
O=C1C(Cc2ccc(O)cc2)NC(=S)N1Cc1ccccc1 (stereo unspecified)	5%	0.4%	3	1%
CN(C)c1ccc(P(=O)(Nc2cccc(C(F)(F)F)c2)N2CCOCC2)c(NC(=O)c2cccs2)c1 (stereo unspecified)	-1%	?	-16	-15%
CCCCN(CC(=O)Nc1c(C)cccc1CC)C(=O)SCC	4%	-0.7%	1	-14%
CNC(=O)N1c2ccccc2C=Cc2ccccc21	-1%	0.2%	.	-8%
COc1cc(OC)c(C(=O)OCC(=O)NCCC2=CCCCC2)cc1OC	.	?	.	20%
CC(=O)Nc1ccc(S(=O)(=O)N(C)CC(=O)Nc2ccccc2N2CCOCC2)cc1	-2%	0.5%	-17	2%
O=C(Cn1cc(C(F)(F)F)cc(Cl)c1=O)NCCc1ccccc1	-5%	-0.8%	8	-11%
COc1ccc(S(=O)(=O)N(C)CC(=O)NCCC2=CCCCC2)cc1C	-2%	?	9	-1%
Cc1c(NS(=O)(=O)c2ccc(Cl)c(C(=O)OCC(=O)NCc3ccco3)c2)c(=O)n(-c2ccccc2)n1C	0%	0.7%	-11	-4%
COc1ccc(C(OCC(O)CNCCc2ccc(S(N)(=O)=O)cc2)c2ccc(OC)cc2)cc1 (stereo unspecified)	-8%	-3.9%	.	-11%
CC(C)c1nc2n[nH]c(N)c2c2c1CSC(C)(C)C2	-23%	0.4%	11	-10%
O=C1NC(c2ccccc2)=C(c2nc3ccccc3s2)C(c2ccccc2)N1 (stereo unspecified)	13%	2.0%	0	-7%
O=C(Nc1ccccc1)N1CCC(C(=O)N2CCCC(C(F)(F)F)C2)CC1 (stereo unspecified)	-3%	0.9%	.	-2%
Cc1c(C(=O)O)sc(S(=O)(=O)N2CCN(C(=O)Cc3ccccc3Cl)CC2)c1C(=O)O	.	-3.4%	.	1%
Cc1cc(-c2n[nH]c(=S)n2Cc2ccco2)n(C)n1	-3%	-2.1%	-10	?
COc1cc2c(cc1OC)-c1cc(N3CCCc4ccccc43)nc(=O)n1CC2	-28%	-5.4%	-1	1%
Cc1ccc(S(=O)(=O)NC(=O)Nc2ccccc2F)cc1	-1%	-2.5%	15	0%
COc1ccc(C(=O)NC2CC(C)(C)Cc3occc32)cc1 (stereo unspecified)	-4%	0.9%	2	9%
Cc1ccccc1CN1CCN(CC(=O)NCc2ccccc2)CC1	-4%	2.0%	.	16%
N/C(=N\OC(=O)CC1CCCCC1)c1ccc([N+](=O)[O-])cc1	-11%	-0.4%	0	-3%
COc1ccc(CN2CCNC(=O)C2CC(=O)N2CCCCO2)cc1OC (stereo unspecified)	4%	-0.5%	-1	0%
CCCn1c(N)c(N(CCOC)C(=O)c2ccc(F)cc2)c(=O)[nH]c1=O	1%	3.1%	.	10%
CC(C)[C@H](NC(=O)NCCc1ccc(F)cc1)C(=O)O	-2%	-0.2%	5	2%
CCC(=O)NCCc1nc2ccccc2n1CC(=O)c1ccccc1	-1%	1.2%	-1	-6%
CCCOc1ccc(/C=C2/C(=O)ON=C2C)cc1OCC	0%	0.7%	.	3%
C=CCOc1c(Br)cc(/C=C2/C(=O)ON=C2C)cc1OC	0%	0.3%	.	11%
CCOc1ccc(NC(=O)C2CC(=O)N(C(C)C)C2)cc1 (stereo unspecified)	-7%	4.7%	4	7%
COC(=O)c1ccc(Oc2c(C)oc3cc(OCc4cnn(-c5ccccc5)c4)ccc3c2=O)cc1	-2%	0.2%	1	-16%
O=C(/C=C/c1cccs1)c1ccco1	.	0.0%	.	17%
Cc1ccc(NS(=O)(=O)c2ccc(C)c(NC(=O)COc3ccccc3)c2)c(C)c1	-1%	1.1%	-5	-11%

# Bioassay records as filed in PubChem.
